From PubChem
VACV mCherry inh = vaccinia inhibition (mCherry reporter). Vaccinia virus mCherry reporter infection, fluorescence; about a quarter of the inactives have no number. Potency, µM (titrated, usually from 36.5 µM), for inactives: at the top dose activity change, negative = inhibition, usual class: inhibitors. actives 0.63% (n = 310,000); active = well fitted inhibition curve with a large enough effect; inconclusive = small, poorly fitted or top-dose-only effect; inactive = no such curve, though single readings can be large or run the other way; tested in A549 cells; note: nearly all actives have a fitted effect of over 35% in size; inactives centre near -10
VACV Venus inh = vaccinia inhibition (Venus reporter); Vaccinia virus Venus reporter expression, fluorescence; Potency, µM (top dose mostly 36.5 µM), without a hit: top-dose activity change, negative = inhibition, hits mostly inhibitors; actives 0.46% (n = 330,000); AID 720580; active means well fitted inhibition curve with a large enough effect; inconclusive means small, poorly fitted or top-dose-only effect; inactive means no such curve, though single readings can be large or run the other way; tested in A549 cells; note: nearly all actives have a fitted effect of over 30% in size; inactives centre near -10
Numbers without * were called inactive; i = inactive; ? = inconclusive; nt = no result given; & = joins results of further samples; [ ] = another dose, or the depositor's remark. % is set by controls: 0 for no effect and ±100 for the full control effect; potency is the fitted concentration of half-maximal effect.

SMILES	VACV mCherry inh	VACV Venus inh
CCS(=O)(=O)NC(C)C(c1cccs1)N1CCN(c2ccc(F)cc2)CC1 (stereo not given)	12%	-6%
C#CCOCCOCCOCCNc1nc(N2CCN(C(=O)CCCCCCCCCCNC(=O)[C@H](CCCCN)n3cc(C)nn3)CC2)nc(N2CCN(C(=O)CCCCCCCCCCNC(=O)[C@H](CCCN=C(N)N)n3cc(C[C@@H](C)CC)nn3)CC2)n1	?	10µM*
COc1ccc(C(=O)O)cc1S(=O)(=O)Nc1cccc(C(F)(F)F)c1	-12%	-5%
O=C(COC(=O)CSc1ccc([N+](=O)[O-])cc1)NCc1ccco1	-14%	-7%
COCCOC(=O)N1CCCCC1c1cc(C(=O)Nc2cccc3c2CCCC3)no1 (stereo not given)	-13%	0%
COc1ccc(-c2csc(/C(C#N)=C/Nc3cc4oc5ccccc5c4cc3OC)n2)cc1	-11%	1%
O=c1c2ccsc2ncn1Cc1cccc(C(F)(F)F)c1	nt	-30%
Nc1ncnc(N2CCOCC2)n1	-11%	-6%
Cc1ccc(-n2c(O)c(C=Nc3ccc(Br)cn3)c(=O)[nH]c2=O)cc1	i	13%
CCCCC(CC(O)COCCC)c1n[nH]c(=S)n1-c1ccccc1 (stereo not given)	-19%	-3%
O=C(CCn1nc(-c2ccc(Cl)cc2)ccc1=O)NCCc1ccccc1	-5%	-12%
COc1cc(C(=O)N/N=C/c2sc(=O)n(-c3ccccc3)c2Cl)cc(OC)c1OC	?	?

Profiles as entered above:
Listed for `O=c1c2ccsc2ncn1Cc1cccc(C(F)(F)F)c1` = VACV mCherry inh: nt; VACV Venus inh: -30%
Listed for `COc1cc(C(=O)N/N=C/c2sc(=O)n(-c3ccccc3)c2Cl)cc(OC)c1OC` = VACV mCherry inh: ?; VACV Venus inh: ?

7 compounds drawn at random from the list so far, as already listed:
SMILES	VACV mCherry inh	VACV Venus inh
COCCOC(=O)N1CCCCC1c1cc(C(=O)Nc2cccc3c2CCCC3)no1 (stereo not given)	-13%	0%
C#CCOCCOCCOCCNc1nc(N2CCN(C(=O)CCCCCCCCCCNC(=O)[C@H](CCCCN)n3cc(C)nn3)CC2)nc(N2CCN(C(=O)CCCCCCCCCCNC(=O)[C@H](CCCN=C(N)N)n3cc(C[C@@H](C)CC)nn3)CC2)n1	?	10µM*
O=C(COC(=O)CSc1ccc([N+](=O)[O-])cc1)NCc1ccco1	-14%	-7%
CCCCC(CC(O)COCCC)c1n[nH]c(=S)n1-c1ccccc1 (stereo not given)	-19%	-3%
COc1ccc(-c2csc(/C(C#N)=C/Nc3cc4oc5ccccc5c4cc3OC)n2)cc1	-11%	1%
COc1cc(C(=O)N/N=C/c2sc(=O)n(-c3ccccc3)c2Cl)cc(OC)c1OC	?	?
Nc1ncnc(N2CCOCC2)n1	-11%	-6%

Next section:
SMILES	VACV mCherry inh	VACV Venus inh
COc1cccc(NC(=O)c2csnn2)c1	-7%	-3%
COC(=O)c1ccc(COc2nc(C)cc(C)c2C#N)o1	-21%	-7%
Cc1cccc(C)c1NC(=O)C1c2ccccc2OCC(=O)N1Cc1ccco1 (stereo not given)	i	6%
Cc1nc(C)c(C(=O)N(c2ccc(C)c(C)c2)C(C(=O)NCc2ccco2)c2ccccc2)s1 (stereo not given)	-2%	-22%
COc1cc(C2Nc3ccccc3-c3nnc(SCc4ccc(Cl)cc4)nc3O2)ccc1OCC(=O)O (stereo not given)	0%	9%
COc1ccccc1/C=N/N(C(C)=O)c1nc(-c2ccc(F)cc2)cs1	0%	2%
COP(=S)(OC)SCn1nnc2ccccc2c1=O	-23%&-1%	-16%&4%
CC(C)Oc1ccc(C(=O)Nc2c(C(=O)Nc3cccc(F)c3)oc3ccccc23)cc1	-2%	-4%
COc1cc(CC(=O)OCC(=O)NC2CCCCCC2)cc(OC)c1OC	-10%	6%
CC1CCN(c2ccc(C(=O)OCC(=O)NCCN3C(=O)CSC3=O)cc2[N+](=O)[O-])CC1	i	-5%
COc1cccc(C2=CC(=O)CCC2)c1	i	-26%
COc1ccc(NC(=O)C(c2ccc(OC)cc2)n2c(=O)c(-c3ccco3)nc3ccccc32)cc1 (stereo not given)	-14%	-9%
Cc1ccccc1CNC(=O)CCc1ccccc1	-18%	-12%
S=C(NCc1ccc2c(c1)OCO2)NC1CCN(Cc2ccccc2)CC1	?	-8%
COc1ccc(C(=O)c2ccccc2)cc1	i	2%
O=C(Nc1cccnc1)c1cc(F)c(F)cc1Cl	i	1%
CS(=O)(=O)N1CCc2cc(C(=O)Nc3ccc(S(N)(=O)=O)cc3)ccc21	-8%	6%
N#Cc1nc(COc2ccccc2)oc1N1CCN(c2cccc(Cl)c2)CC1	-17%	-20%
CC[C@@]1(c2ccccc2C)C(=O)N(C(=O)OC)N1C(=O)OC	-26%	-28%
O=C(NCc1ccco1)c1scc2c1OCCO2	i	-11%
O=C(CNC(=O)c1ccc(Cl)cc1)OCc1cc(=O)n2ccsc2n1	3%	5%
O=C(Nc1ccccc1N1CCOCC1)C1CCCCN1S(=O)(=O)c1ccccc1 (stereo not given)	-2%	-12%
O=C(Nc1scc(-c2ccccc2)c1C(=O)O)c1ccco1	-5%	-2%
CCOC(=O)N1CCC(NC(=O)CS(=O)Cc2nc(-c3ccccc3C)oc2C)CC1 (stereo not given)	-7%[7.34 µM]	4%[7.34 µM]
c1ccc(CSc2nnc(-c3sccc3-n3cccc3)o2)cc1	nt	-27%
Cc1ccc(/C=N/NC(=O)c2ccc(-c3ccccc3)cc2)o1	5%	4%
Cc1nn(C)cc1CN1CCCC(C(=O)c2ccc(-c3ccccc3)cc2)C1 (stereo not given)	-3%	-22%
CCC1(C)Cc2c(sc3c2c(=O)n(-c2ccccc2)c(=O)n3C)CO1 (stereo not given)	-8%	-24%
CC[C@@]12C(=O)N(c3ccccc3)C(=O)N1[C@H](c1ccc(Br)cc1)[C@@H]1C(=O)N(C(C)(C)C)C(=O)[C@@H]12	?	?
O=C(Nc1ccc(-c2csc(Nc3cccc(C(F)(F)F)c3)n2)cc1)c1cccc(C(F)(F)F)c1	?	?
CCN(CC)S(=O)(=O)c1ccc(OC)c(NC(=O)c2cccc([N+](=O)[O-])c2C)c1	i	-17%
O=C(CN1CCN(C(=O)C2CCN(C(=O)/C=C/c3ccccc3)CC2)CC1)Nc1ccccc1Cl	-8%	-18%
CCOC(=O)C1C(=O)C=C(c2ccccc2)CC1c1ccccc1 (stereo not given)	i	1%
CCN(CC)c1nc(C)c(C(C)=O)cc1C#N	nt	?
Cc1ccc(S(=O)(=O)N2C[C@H]3C(=O)C[C@@H]4C(=O)N(c5ccccc5)C(=O)[C@@H]4[C@@H]3C[C@@H]2c2ccccc2)cc1	4%	-7%
O=C(O)c1ccccc1CSc1nc2ccccc2n1Cc1ccccc1C(=O)O	-18%	2%
CCCCN(C(=O)c1ccc(N2CCCC2=O)cc1)c1c(N)n(CC(C)C)c(=O)[nH]c1=O	-10%	-14%
COc1ccccc1NC(=O)CSc1nccn1Cc1ccc(F)cc1	-5%	-18%
COC(=O)c1c(C)[nH]c(C(=O)C(C)OC(=O)C2CC2)c1C (stereo not given)	-14%	-9%
CC(=O)Nc1sc(NC(=O)c2ccco2)nc1-c1cccs1	-22%	9%
CCOc1ccc(NC(=O)Nc2ccc3c(c2)nnn3C)cc1	-13%	-7%
CCOCCSc1nnc2nc(C)cc(C)n12	nt	-14%
Cn1nc(-c2ccc(C(=O)NCCO)cc2)c2ccccc2c1=O	-12%	-7%
CC(=O)N(C)C[C@@H]1Oc2ncc(Br)cc2C(=O)N([C@H](C)CO)C[C@@H]1C	-7%	-15%
CC(C)(C)OC(=O)N1CCC(NC(=O)c2[nH]cnc2C(=O)N[C@@H](Cc2ccccc2)C(=O)OCc2ccccc2)CC1	i	-11%
Cc1ccc(S(=O)(=O)N(CC(O)CN2CCCCC2)c2ccccc2)cc1 (stereo not given)	-8%	-13%
C=C(C)c1cccc(C(C)(C)NC(=O)N2CCCC2)c1	nt	-2%
CC(NC(=O)c1ccc(F)cc1Cl)C1CC2CCC1C2 (stereo not given)	-4%	-2%
Cc1noc(NC(=O)c2ccc(Cl)c(Cl)c2)c1Cl	i	-19%
CCc1cc(=O)[nH]c(SCc2ccc(C)cc2)n1	-11%	-15%
CCCCCCSc1ccc([C@@H]2[C@@H]3C(=O)N(C)C(=O)[C@@H]3[C@]3(C(=O)OC)CCCCN23)cc1OC	-10%	-28%
O=C(c1ccco1)N1CCN(C(=O)C23CC4CC(CC(C4)C2)C3)CC1	i	-13%
CCC(=O)Nc1nnc(S(=O)(=O)N(CC(C)C)c2ccccc2)s1	-12%	-18%
CCOC(=O)NC(=O)c1cn(Nc2ncc(C(F)(F)F)cc2Cl)c(=O)[nH]c1=O	i	18%
COCCC(=O)N1CCOCC1c1cc(C(=O)NCc2ccccc2)no1 (stereo not given)	-2%	7%
Cn1c(SCC(=O)c2ccc(F)cc2)ncc(C(=O)Nc2ccccc2)c1=O	-26%	-17%
CCOc1ccc(S(=O)(=O)N2CCC(C(=O)N3CCN(c4ccccc4)CC3)CC2)cc1	-10%	-18%
COc1cc(NC(=O)Cc2ccc(F)cc2)cc(OC)c1OC	-8%	-3%
O=C(OCCCCN1C(=O)c2ccccc2C1=O)c1ccc(S(=O)(=O)N2CCCC2)cc1	nt	-4%
Cc1oc(-c2ccccc2Cl)nc1CS(=O)(=O)CC(=O)NCc1ccc(F)cc1	-20%	-9%

(further entries)
SMILES	VACV mCherry inh	VACV Venus inh
C[C@@H]1O[C@@H](OC[C@H]2O[C@@H](Oc3c(-c4ccc(OCCO)c(OCCO)c4)oc4cc(OCCO)cc(O)c4c3=O)[C@H](O)[C@@H](O)[C@@H]2O)[C@H](O)[C@H](O)[C@H]1O	-11%	-3%
Cc1cccc(N/C=C/C(=C(C#N)C#N)N(C)C)c1	-13%	-7%
COc1cc(-c2noc(C)c2/C=C/c2ccc(OC(C)=O)cc2)cc(OC)c1OC	?	?
O=C(NCc1ccco1)c1cccc(-c2ccc3nccn3c2)c1	14%	-18%
Cc1ccc(NC(=O)C2CCCN(S(=O)(=O)c3c(C)n[nH]c3C)C2)cc1Cl (stereo not given)	-21%	?
C=C1c2cc(OC)ccc2NC(=O)N1CC	-23%	-15%
O=C(NNc1nc(N2CCCC2)nc(N2CCCC2)n1)c1ccccc1	-22%	-10%
Fc1ccc(OCCCCCN2CCCC2)cc1	i	-8%
O=C(NCC1CCCO1)c1ccc(CS(=O)(=O)c2ccc(Br)cc2)o1 (stereo not given)	-6%	1%
CCC(=O)NC(=S)Nc1cccc(NC(=O)CC)c1	nt	-9%
O=C(CC1C(=O)NCCN1C(=O)c1ccc([N+](=O)[O-])cc1)Nc1cccc(Cl)c1 (stereo not given)	-21%	-7%
Cc1cc(C)c(NC(=O)CNC(=O)CN(C)Cc2ccc(Br)s2)c(C)c1	?	-25%
CN(C)/C=C(\C(=O)c1ccc(F)cc1F)c1nnnn1-c1ccccc1	-27%	-18%
NC(=O)C1(N2CCCCC2)CCN(C(=O)CSc2nc3ccccc3[nH]2)CC1	nt	-8%
O=C(NC(O)C(=O)c1ccccc1)c1ccc(F)cc1 (stereo not given)	?	-6%
CN1C(=O)C2(c3ccccc31)C1CCCC=C1C(C#N)=C(N)C2(C#N)C#N (stereo not given)	i	-7%
Cc1cccc(N(CC(=O)NCc2ccccc2)C(=O)CCC(=O)Nc2nccs2)c1	-2%	?
CCOc1ccc2[nH]c(C)c(CN(C)C)c(=O)c2c1	-13%	-10%
CC(=O)N1CCc2cc(S(=O)(=O)NCCC(=O)Nc3cccc(C)c3C)ccc21	-1%	-15%
CCn1c(SCCC(=O)Nc2ccccc2)nnc1-c1ccc(OC)cc1	-10%	-4%
COc1cc(OC)c2c(-c3ccccc3)cc(=O)oc2c1C(CCN1CCN(c2ccccc2)CC1)c1ccc(N(C)C)cc1 (stereo not given)	?	-14%
Nc1nc2c([nH]c(=O)n2C2OC(CO)C(O)C2O)c(=O)[nH]1 (stereo not given)	i	-3%
Cc1ccc(N(CN2C(=O)C3CC=CCC3C2=O)C(=O)c2ccco2)cc1Cl (stereo not given)	-8%	-27%
CCOCCCn1c(SCc2ccccc2)nnc1-c1ccncc1	-11%	1%
C1=Nc2ccccc2CN1c1ccccc1	i	-17%
COc1ccc(CN2C(=O)NC(=O)/C(=C\c3ccco3)C2=O)cc1	i	39%[activator]
O=C(C1CCN(S(=O)(=O)c2ccccc2)CC1)N1CCC2(CC1)OCCO2	-5%	-2%
Cc1ccc(CNc2nccn(-c3cc(C)cc(C)c3)c2=O)cc1	i	-2%
Cc1ccc(C)c(CN2CCNC2=O)c1	?	-4%
C=CCn1c(COc2ccccc2)nnc1SCc1ccc(C#N)cc1	-23%	-4%
COc1ccc(CCN2CC(C(=O)NCCCc3ccncc3)CCC2=O)cc1 (stereo not given)	6%	-5%
Cn1ccnc1SCC(=O)Nc1ccc(Oc2ccccc2)cc1	nt	-29%
